# Sa ugtP lethal: kills S. aureus RN4220 lacking UgtP; S. aureus RN4220 ugtP deletion, OD600 growth, 16 h; some inactives read as strong as hits; growth inhibition, % (no concentration beside the values); actives 0.54% (n = 330,000); AID 1259309;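 active = z-score under -3 and OD600 up to 0.15 on both plates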;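 note: plate controls were untreated wells for no effect and antibiotic for full effect; wells of about 80 µL received 100 nL stock; the first replicate is given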
# RN4220 kill: kills Staphylococcus aureus RN4220; S. aureus RN4220 growth, OD600, 16 h; inhibition, % (no concentration beside the values); actives 0.33% (n = 330,000); AID 1259311;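 active = z-score of -3 or lower and OD600 up to 0.18 on both plates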;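 note: plate controls were untreated cells for no effect and reference antibiotic for full effect; stock transfer was 100 nL into about 80 µL; one replicate is shown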
# PrP 5UTR inh: inhibition of PrP 5' UTR reporter expression; actives 0.35% (n = 340,000); inhibition, % (concentration not given with the values); cell-based PrP 5' UTR mRNA reporter, plate reader; AID 488862;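 active = every replicate at 50% or more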;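 note: 0 = median of the neutral control wells; tested in H4 reporter cells; numbers are from one replicate; inactives centre near -14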
# BJeLR viability: BJeLR cell viability loss; actives 0.17% (n = 300,000); AID 1554; BJeLR (HRASV12) viability, CellTiter-Glo ATP luminescence, 48 h; reference of the scale not given here; inhibition, % (test concentration not listed);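 active = replicate mean above 50%; inconclusive = above 50% but judged a plate artefact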;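 note: 50 nL library stock added to about 25 µL; numbers are from one replicate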
# Mtb hypoxia rep: Mtb hypoxia fluorescent reporter inhibition. fluorescence inhibition, % (concentration not given with the values). actives 0.1% (n = 300,000). M. tuberculosis hypoxia-regulated fluorescent reporter, fluorescence. AID 1159583;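 active = 35 to 45% if threefold the growth effect, above 45% if 1.5-fold the growth effect; inactive = the rest, general growth blockers included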;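 note: wells of about 50 µL received 100 nL stock; 0% = vehicle wells and 100% = reference inhibitor wells; whole bacteria with a GFP reporter of the hypoxia response; strong numbers were not always called active; many hits fall short of the cut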
# Autofluor counter: compound fluorescence in toxin protease inhibitor counterscreen. compound autofluorescence counterscreen, microsphere flow cytometry; active compounds read high. fluorescence intensity (test concentration not listed). actives 3.1% (n = 360,000). AID 624483;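 active = at least 3 SD above the mean of all compounds, about 16000 in these data; inconclusive = too few beads counted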;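 note: 100 nL of 1 mM stock went into each well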
# Mtb hypoxia rep growth: second read-out of Mtb hypoxia rep, no call of its own (marks repeat the call); growth inhibition, %; measured here: M. tuberculosis growth (absorbance);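 0% = vehicle and 100% = reference antibiotic; read after six days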
# * hit, by the source's call; ? = inconclusive; nt = not tested or not shown.
entry	SMILES	Sa ugtP lethal	RN4220 kill	PrP 5UTR inh	BJeLR viability	Mtb hypoxia rep	Mtb hypoxia rep growth	Autofluor counter
1	COc1ccccc1OCCNc1nc2c(c(=O)n(C)c(=O)n2C)n1C	5	1.4	-19	2	2	-3	3640
2	NC(=O)C1C(=O)c2ccccc2C1(C[N+](=O)[O-])c1ccccc1 (stereo not given)	-5	0.3	-8	nt	-3	15	3607
3	O=C(Cn1cc(C=C2C(=O)NC(=O)NC2=O)c2ccccc21)NCC1CCCO1 (stereo not given)	1	-2.4	-17	5	14	4	4434
4	CCc1cccc(CC)c1NC(=O)C(CC)Sc1nc2ccncc2[nH]1 (stereo not given)	15	1.5	-25	-6	0	3	4472
5	Clc1cccc(NCc2nnc3n2CCCCC3)c1	10	3.3	-4	1	-3	-10	5767
6	O=C1CN=C(c2ccccc2)c2c(sc3c2CCCC3)N1	-5	1.9	-13	-6	3	9	5895
7	CSCCC(NS(=O)(=O)c1c(Cl)cccc1Cl)C(=O)O (stereo not given)	3	5.9	-12	5	4	8	4353
8	CCCCCC(=O)Nc1cccc(C2=NOC3(C2)CC(C(N)=O)N(C(=O)C2(C)CC2)C3)c1 (stereo not given)	4	3.8	nt	nt	5	5	nt
9	COCCn1c(N)c(N(Cc2ccccc2)C(=O)C2CCCC2)c(=O)[nH]c1=O	3	2.0	-7	-2	9	2	3872
10	Cc1c(C(=O)NCc2cccnc2)oc2ccc(S(=O)(=O)N3CCCCC3)cc12	5	3.6	-5	13	5	4	11469
11	COC(=O)c1cn(C)c2ccc(S(=O)(=O)N3CCOCC3)cc2c1=O	10	9.6	3	-4	1	0	4284
12	O=c1c2ccccc2nc(/C=C/c2ccccc2)n1-c1ccccc1O	97*	96*	nt	-16	12	3	4092
13	COc1ccc(S(N)(=O)=O)cc1C(=O)OCCCOc1ccc(F)cc1	10	4.4	-11	-5	18	11	3440
14	CCOc1cc(S(=O)(=O)NCc2ccc(OC)cc2)c(OCC)cc1-n1cnnn1	2	1.2	-20	nt	-1	1	23322*
15	OCCCNc1ncnc2c1cnn2-c1ccc(Cl)cc1	1	2.1	nt	-4	18	11	3274
16	Cc1cccc(Cn2c(N3CCCCC3C)nc3c2c(=O)[nH]c(=O)n3C)c1 (stereo not given)	3	9.7	-6	12	0	3	5806
17	Cc1ccc(NC(=O)Nc2cc(S(=O)(=O)N(C)C)ccc2C)cc1	7	-3.5	-17	2	4	2	3392
18	Cc1cnc(C(=O)OCc2csc(CC(=O)Nc3ccccc3C)n2)cn1	7	3.2	-4	3	10	4	4717
19	CC1CCCN(C(=O)c2sc3cc([N+](=O)[O-])ccc3c2Cl)C1 (stereo not given)	-11	1.0	-63	3	nt	nt	5165
20	CCCC=C(CCC)C(NC(=O)OCC(C)C)c1ccc(C(=O)OC)cc1 (stereo not given)	0	-8.4	nt	nt	5	-4	nt
21	COc1ccc(CCNC(=S)NC(=O)c2cccc([N+](=O)[O-])c2)cc1OC	15	3.2	-25	5	3	0	?
22	CC(=O)N1CCN(CC(=O)Nc2ccc(Cl)c(S(=O)(=O)N(C)C)c2)CC1	4	3.6	-3	-1	3	4	2154
23	COc1ccccc1N1CCN(C(=O)c2ccc([N+](=O)[O-])s2)CC1	0	2.4	-14	-6	nt	nt	2261
24	Cc1ccc(OCCCC(=O)Nc2nc3ccccc3[nH]2)cc1	0	3.8	-82	-2	3	11	3573
25	O=C(CN(C(=O)CCC(=O)Nc1ccccn1)c1ccc2c(c1)OCCO2)NCCc1ccccc1	12	8.3	-4	-5	nt	nt	3709
26	Cc1onc(-c2ccccc2Cl)c1C(=O)Nc1ccc2c(c1)OCO2	-2	2.7	-9	-5	4	0	?
27	COc1cccc(N=Cc2c(O)c3ccccc3oc2=O)c1	3	2.7	0	-8	5	3	3605
28	Cc1cc(NC(=O)Nc2cccc(C)c2C)no1	7	-0.1	1	-6	3	6	1991
29	Nc1ccc(-c2nc3ncccc3o2)c(Cl)c1	1	-0.3	-45	-4	-3	-10	2121
30	Cc1ccc2sc(N3CCN(C(=O)C4=COCCO4)CC3)nc2c1C	11	6.1	-2	5	4	-9	4407
31	O=C(NC(=S)Nc1cccc([N+](=O)[O-])c1)C1CCCC1	4	0.9	-22	7	12	25	5429
32	O=C(Cc1c[nH]c2ccccc12)NC1(C(=O)NC2CCCCC2)CCCCC1	8	1.1	-8	-8	-2	-1	2159
33	COCCNC(=O)c1cc2c(-c3ccc(Cl)cc3)nn(C)c2s1	-1	-1.0	-5	1	nt	nt	5942
34	O=C(Oc1ccccc1N1C(=O)C2CCCCC2C1=O)c1ccc(Cl)cc1 (stereo not given)	3	1.8	-6	-1	8	1	16091
35	Cc1c(Cl)cccc1NC(=O)CCN1CCOCC1	7	0.9	-6	-2	1	14	3202
36	NCC(c1ccco1)c1c[nH]c2ccccc12 (stereo not given)	1	1.2	-27	-22	-1	17	3887
37	COc1cc(C(C)=O)ccc1OCC(=O)NCC(c1ccc(F)cc1)N1CCOCC1 (stereo not given)	1	2.3	-12	nt	19	6	4146
38	CC1=CC(=NOS(=O)(=O)c2ccccc2)C(C)=CC1=O	10	3.3	nt	nt	11	11	nt
39	CN(Cc1c(C(=O)NN=Cc2cc(F)ccc2F)nnn1-c1nonc1N)C1CCCCC1	-2	-0.1	nt	nt	1	-6	nt
40	COc1ccc(NS(=O)(=O)c2ccc(NC(=S)NC(=O)c3cccnc3)cc2)nn1	-1	4.8	-37	9	5	6	3397
41	CN(CC(=O)Nc1ccccc1C(=O)NC1CC1)Cc1ccc(N(C)C)cc1	3	4.1	-13	nt	9	-5	3799
42	CS(=O)(=O)c1ccc2nc(NC(=O)c3ccc(NS(=O)(=O)c4ccc(F)c(F)c4)cc3)sc2c1	12	2.7	-13	3	4	-2	3381
43	Cc1cc(C)c(-c2csc(NC(=O)C3=COCCO3)n2)c(C)c1	4	-0.7	-9	1	-21	8	nt
44	Nc1nonc1-n1nnc(C(=O)N/N=C/c2cccnc2)c1CSc1ccccc1	nt	nt	-8	-4	nt	nt	5480
45	Cn1c(=O)n(C)c2cc(C=NNC(=O)c3cccc(Br)c3)ccc21	-4	2.0	nt	nt	11	13	nt
46	Cc1oc(-c2ccccc2Cl)nc1CN(Cc1ccccn1)C[C@@H]1CCC(=O)N1	5	4.2	-15	-13	4	10	2279
47	CCOC(=O)c1c(CN2CCOCC2)oc2ccc(OC(C)=O)cc12	6	3.0	-62	-6	7	-3	3254
48	CC(C)(C)c1cc(CCC(=O)NCc2cccnc2)cc(C(C)(C)C)c1O	-2	7.0	-14	4	3	-7	5963
49	CC(=O)Nc1ccc(S(=O)(=O)NCC2CCCO2)cc1 (stereo not given)	3	2.6	-2	1	12	2	4371
50	CCOc1ccc(C(=O)N2CCC3(CC2)NCCc2[nH]cnc23)cc1	5	3.8	-12	0	6	-2	6575

# (cont.)
entry	SMILES	Sa ugtP lethal	RN4220 kill	PrP 5UTR inh	BJeLR viability	Mtb hypoxia rep	Mtb hypoxia rep growth	Autofluor counter
51	CCOC(=O)c1c(-c2ccccc2)c2cc(OC)ccc2n1CCCN(C)C	-9	-3.1	-17	7	22	22	3577
52	Nc1ccc(-c2nc3cc(N)ccc3o2)cc1	3	2.4	-11	-11	12	15	3544
53	O=C(c1ccc(NS(=O)(=O)c2cccs2)cc1)N1CCCCC1	-1	0.3	-2	1	-7	3	8783
54	O=C(COC(=O)c1nsc(Cl)c1Cl)NC1CCCCC1	10	0.3	-9	2	8	1	3457
55	N#Cc1ccc(CCc2ccccc2)[nH]c1=O	3	-0.4	-27	nt	1	3	4183
56	C/C(=N\NC(=O)c1cc(Br)ccc1O)c1cccs1	nt	nt	-116	1	nt	nt	1977
57	Oc1c(Br)cc(C2N=C(c3ccccc3Cl)NO2)cc1Br (stereo not given)	48	55	-6	13	nt	nt	nt
58	Cc1ccn2c(/C=N/OCc3cccc(F)c3)c(-c3ccc(Cl)cc3)nc2c1	nt	nt	-7	1	nt	nt	2206
59	Cc1cccc(NC(=O)CN2C(=O)NC3(CCCC3)C2=O)n1	4	4.2	-27	0	8	0	5799
60	CN(C)CCNC(=O)c1cc2sc3ccccc3c2s1	-2	2.5	-30	3	10	10	4205
61	CCCCN(C)CCNC(=O)c1cc2cc3ccc(OC)cc3nc2o1	6	0.2	-12	0	1	6	3451
62	O=C(O)C[C@H]1c2cc(C(F)(F)F)ccc2S(=O)(=O)N1C1CCN(Cc2ccccc2)CC1	nt	nt	-13	4	nt	nt	2999
63	Cc1cccc(C)c1OCC(=O)Nc1ccc(S(=O)(=O)Nc2ccccn2)cc1	-2	1.9	-16	-8	12	9	2380
64	COc1cc2c(CCNC(C)=O)c[nH]c2cc1O	-5	7.1	-18	-1	-1	-2	5897
65	COc1cc(C2Nn3c(nnc3-c3ccccc3OC)S2)ccc1O (stereo not given)	-3	0.8	8	-2	nt	nt	4429
66	COc1ccccc1C(=O)NCCC(=O)N(C)Cc1cccnc1	2	-2.1	nt	nt	8	2	nt
67	CC(C)c1nnc(NC(=O)C2CCN(c3cnccn3)CC2)s1	9	-2.0	-1	-2	15	16	3145
68	CCN1CCCC1CNC(=O)Cn1cccc1C(=O)c1ccccc1C (stereo not given)	-4	-13	-6	0	18	0	4639
69	COC(=O)NN=Cc1ccc(-c2ccc(Cl)c(Cl)c2)o1	-7	2.2	nt	nt	7	1	nt
70	O=C(Nc1ccccc1N1CCCC1)c1cc(S(=O)(=O)N2CCOCC2)ccc1Cl	2	3.7	-18	-5	12	6	6400
71	CSc1ccccc1C(=O)Nc1nccs1	7	5.3	-4	0	-2	-8	3560
72	COc1ccccc1NC(=O)COC(=O)CNC(=O)c1ccc(OC)c(OC)c1	4	-0.8	-13	6	5	1	8165
73	O=C(CN1C(=O)NC2(CCCC2)C1=O)N1CCCSC1=Nc1ccccc1	5	2.1	-25	nt	3	6	5960
74	CSc1ccc(CCNC(=O)C2CCCN(c3nn4c(=O)cc(C)nc4s3)C2)cc1 (stereo not given)	6	0.5	-21	2	-6	-8	nt
75	Cc1noc(C)c1COc1ccc(C(=O)NCC2CCCO2)cc1 (stereo not given)	-3	-4.5	-15	-1	nt	nt	3367

# Complete entries as entered above. Screens in order: Sa ugtP lethal, RN4220 kill, PrP 5UTR inh, BJeLR viability, Mtb hypoxia rep, Mtb hypoxia rep growth, Autofluor counter
# `Cc1noc(C)c1COc1ccc(C(=O)NCC2CCCO2)cc1` (stereo not given) in the list: -3, -4.5, -15, -1, nt, nt, 3367
# `CCOC(=O)c1c(-c2ccccc2)c2cc(OC)ccc2n1CCCN(C)C` in the list: -9, -3.1, -17, 7, 22, 22, 3577

# (cont.)
entry	SMILES	Sa ugtP lethal	RN4220 kill	PrP 5UTR inh	BJeLR viability	Mtb hypoxia rep	Mtb hypoxia rep growth	Autofluor counter
76	Clc1ccc(Nc2ncn[nH]2)c(Cl)c1	9	2.2	-12	0	12	1	4485
77	CCOC(=O)c1c(C)c(C(=O)Nc2ccc3c(c2)OCO3)c(C)n1C	-2	4.8	-27	5	6	4	9460
78	COc1ccc(C[C@H]2CN3C(=NC[C@H]3C)N2CCNC(=O)c2ccc(C)c(Br)c2)cc1	nt	nt	-7	-9	nt	nt	3667
79	COc1c(F)c(F)cc2c(=O)c(C(=O)O)cn(C3CC3)c12	76	56	-12	-22	11	-1	3443
80	COc1ccc(CC(=O)NCc2cccs2)cc1	6	3.3	-8	-10	nt	nt	8485
81	CC(C)n1nc(C(=O)Nc2cccc(S(=O)(=O)NCc3ccco3)c2)c2ccccc2c1=O	13	7.8	6	4	9	5	3585
82	Cc1ccc(-n2c(SCc3ccc([N+](=O)[O-])cc3)nc3ccccc3c2=O)cc1	-6	-4.1	7	-3	-4	-4	20811*
83	O=C(C1CC(=O)N(c2ccc(F)cc2)C1)N1CCN(c2ccccc2)CC1 (stereo not given)	nt	nt	-15	1	nt	nt	4933
84	CN(C)S(=O)(=O)c1ccc(C(=O)Nc2nnc(Cc3ccccc3)s2)cc1	8	6.5	0	1	nt	nt	2187
85	C[C@H](O)[C@@H](C(=O)N1CCN(C(=O)OC(C)(C)C)CC1)n1cc(CCCCNC(=O)OC(C)(C)C)nn1	nt	nt	-25	-2	nt	nt	3839
86	O=C(CNC(=O)C12CC3CC(CC(C3)C1)C2)N/N=C\c1ccco1	nt	nt	-16	-11	nt	nt	?
87	Oc1ccc2ccccc2c1-c1sc(Nc2ccccc2)n[n+]1-c1ccc(F)cc1	5	-1.0	-27	15	2	-7	4550
88	CC#CC[N+](C)(C)CCCCCCCCCCCC	100*	100*	-13	17	23	27	2319

# Outcome played no part in choosing rows; about 4% have a hit in one of these screens.
